From PubChem BioAssay
HCMV UL50-53 inh – cytomegalovirus nuclear egress complex inhibition; HTRF UL50-UL53 interaction, normalized percent inhibition; inhibition, % (concentration not given with the values); 190,000 compounds, 0.15% hits; AID 1918969;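 active = both replicates at 50% or more, plus weaker picks with an unusually low signal ratio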;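 also: stock transfer was 100 nL into about 20 µL; 0% = negative control wells and 100% = wells with untagged competitor protein; inactives centre near -12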
GIV-Gai inh – GIV-Galpha-i interaction inhibition. Galpha-i3/FITC-GIV peptide fluorescence polarization, 90 min; stronger effect = lower value; scaled: aluminum fluoride 0%, vehicle 100%. P08753. percent of control (FP), % (concentration not given with the values). AID 1224905. 210,000 compounds, 0.42% hits;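 active = replicate mean at 85% of control or lower, very high polarization wells dropped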;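 also: wells of about 15 µL received 100 nL stock; the first replicate is given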
Target sequence (P08753 whole entry, looked up): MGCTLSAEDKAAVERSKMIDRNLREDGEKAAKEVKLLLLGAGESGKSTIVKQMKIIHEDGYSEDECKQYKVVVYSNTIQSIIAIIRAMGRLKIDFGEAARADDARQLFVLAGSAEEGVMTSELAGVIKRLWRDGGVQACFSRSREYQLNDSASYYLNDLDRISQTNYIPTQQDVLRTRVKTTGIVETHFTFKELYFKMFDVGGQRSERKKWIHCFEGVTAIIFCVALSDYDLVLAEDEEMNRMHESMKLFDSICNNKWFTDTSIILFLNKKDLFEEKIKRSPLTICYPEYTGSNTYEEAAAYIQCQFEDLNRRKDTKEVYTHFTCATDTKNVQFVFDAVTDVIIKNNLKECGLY
Sa growth inh – S. aureus growth inhibition; S. aureus RN4220 growth, OD600, 20 h, 42 °C; stronger effect = lower value; relative growth, % (no concentration beside the values); 170,000 compounds, 0.53% hits; AID 720641;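 active = growth at 42 °C up to 50% and 20 or more points under that at 30 °C, or under 10% at both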;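 also: 300 nL library stock went into each well; scaled to the means of positive and negative controls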
Sa growth inh second temp – further read-out of Sa growth inh, marked with its call; relative growth, %; measured here: growth at 30 °C;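 optical density after 20 h as mean of two plates; 100% = untreated growth and lower means inhibition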
* marks the source's active call; other numbers are inactive results; . = not tested or not shown; & = joins results of further samples.

1	CCOC(=O)c1oc2ccccc2c1NC(=O)CCN1CCCCC1
2	O=C(CCCc1nc(-c2ccc(Cl)cc2)no1)Nc1nccs1
3	O=C(Nc1ccc(N2CCOCC2)cc1)c1ccc2c(c1)S(=O)(=O)c1ccccc1C2=O
4	O=C(OCCN1CCCC1=O)c1cccnc1Cl
5	Clc1ccccc1Cn1c2ccccc2c2nc3ccccc3nc21
6	O=C(O)c1nc2ccc(S(=O)(=O)C(F)(F)F)cc2n1O
7	COCC(C)n1c(COc2ccccc2F)nn(CN2C(C)CCCC2C)c1=S (stereo not given)
8	CCc1noc(-c2ccc(N(C)Cc3ccc(OC)cc3)c([N+](=O)[O-])c2)n1
9	CN(C)C(=O)c1ccc2c(c1)N(CC(=O)Nc1ccc3c(c1)OCO3)C(=O)CO2
10	C(=C\c1ccccc1)/CN1CCN(CC2CCCCC2)CC1
assay / compound,1,2,3,4,5,6,7,8,9,10
HCMV UL50-53 inh,5,-13,-46,-6,-10,-29,-26,-29,-3,-6
GIV-Gai inh,.,105,.,.,102,.,.,100,99,102
Sa growth inh,114,.,70,141,.,88,88,99,.,100
Sa growth inh second temp,93,.,86,88,.,92,92,93,.,99

11	Cc1ccc(-c2nnc(SCc3ccccc3)o2)cc1
12	O=C(CCS(=O)(=O)c1ccccc1)N(Cc1cccnc1)c1nc2c(Cl)cccc2s1
13	Cc1cccc(C(=O)Oc2cc(-c3ccc4c(c3)OCO4)cc(=O)c3c(C)oc(C)c23)c1
14	COC(OC)c1ccnc(SCC(=O)Nc2ccc(C(C)C)cc2)n1
15	COc1ccc(C2=NN(C(=O)CCC(=O)O)C(c3ccc(F)cc3)C2)cc1OC (stereo not given)
16	N#CC1=C(SCCCCSC2=C(C#N)C3(CCCCC3)C(C#N)C(=O)N2)NC(=O)C(C#N)C12CCCCC2 (stereo not given)
17	COC(=O)C1=CN(Cc2ccc(OC)cc2)C=C(C(=O)OC)C1c1cccc(O)c1
18	CC12CCC(CC1=NNc1nc3ccccc3o1)C2(C)C (stereo not given)
19	O=C(Nc1ccc2c(c1)OCO2)N1CCc2c([nH]c3ccc(Cl)cc23)C1c1ccc(F)cc1 (stereo not given)
20	CN1CCN(Cn2nc(-c3cccc(S(=O)(=O)N4CCOCC4)c3)n(Cc3ccc(F)cc3)c2=S)CC1
assay / compound,11,12,13,14,15,16,17,18,19,20
HCMV UL50-53 inh,.,.,-6,-7,-28,-26,-24,-45,-14,-3
GIV-Gai inh,104,93,109,102,103,104,99,.,103,.
Sa growth inh,94,119,.,82,.,.,99,71,.,82
Sa growth inh second temp,93,82,.,72,.,.,85,36,.,91

21	CC1CCc2onc(C(=O)N3CCN(c4ccccc4)CC3)c2C1 (stereo not given)
22	Cc1cccc(C)c1NC(=O)CN(Cc1ccc(Br)cc1)S(=O)(=O)c1ccccc1
23	COC(=O)c1c(N)sc2c1CCC(C(C)(C)C)C2 (stereo not given)
24	CC1CCCCC1NC(=O)CC#N (stereo not given)
25	O=C1NC(=O)N(c2ccccc2)C(=O)C1=Cc1c2ccccc2cc2ccccc12
26	CCOc1ccc(Br)cc1S(=O)(=O)Nc1ccc(F)cc1
27	COC(=O)c1scc(S(=O)(=O)C(C)(C)C)c1N
28	COCC(=O)N(Cc1nc2nc(C)cc(=O)n2[nH]1)c1ccc(Cl)cc1
29	Cc1ccccc1OCC(=O)Nc1ccc2nn(-c3ccccc3)nc2c1
30	CCN(C(=O)c1cncn1-c1ccc(F)cc1)c1nc2c(C)cccc2s1
assay / compound,21,22,23,24,25,26,27,28,29,30
HCMV UL50-53 inh,.,-18,-1,24,.,-11,-46,-2,4,-14
GIV-Gai inh,97,100,.,.,101,.,105,102,.,.
Sa growth inh,107,101,48,88,117,81,85,.,88,129
Sa growth inh second temp,100,92,75,103,90,82,89,.,106,55

31	CC(C)c1ccc(NC(=O)c2cc(S(=O)(=O)N(C)C3CCCCC3)ccc2F)cc1
32	CCN1C(=O)c2cccc3c(S(=O)(=O)NC(Cc4ccccc4)C(=O)O)ccc1c23 (stereo not given)
33	CCC(C(=O)Nc1cccc(OC)c1)n1c(SCc2ccc(C)cc2)nc2cccnc21 (stereo not given)
34	O=C(CSCc1ccccc1Cl)NCc1ccc(Cl)c(Cl)c1
35	Cc1ccc(OCC(=O)Nc2ccc3nn(-c4ccc(Cl)cc4)nc3c2)cc1
36	COc1ccccc1OCc1nn2c(-c3ccoc3C)nnc2s1
37	CC(=O)Nc1ccc(NC(=O)CSc2nnc3c4cc(Br)ccc4n(C)c3n2)cc1
38	O=C(Nc1c(C(=O)N(Cc2ccc(F)cc2)Cc2cccnc2)oc2ccccc12)C1CC1
39	CCC(C(=O)O)C(C)CC(=O)Nc1ccccc1Cl (stereo not given)
40	CN(C)CCNC(=O)c1ccc2nc(CCc3ccccc3)oc2c1
assay / compound,31,32,33,34,35,36,37,38,39,40
HCMV UL50-53 inh,.,-91,.,.,-59,-11,-51,-20,-23,.
GIV-Gai inh,105,101,103,105,112,111,103,104,108,98
Sa growth inh,122,101,164,96,97,.,99,86,109,95
Sa growth inh second temp,94,86,92,77,90,.,90,45,96,91

41	Cc1ccc(NC(=O)c2nnc(SCC(=O)N3CCN(c4ccccn4)CC3)s2)cc1
42	Cc1csc(C(=O)Nc2cccc(C(F)(F)F)c2)c1
43	O=C(CSc1nccn1Cc1ccccc1)Nc1ccc2c(c1)OCCO2
44	COc1ccc(-c2nc(C)c(CCNC(=O)c3ccco3)s2)cc1
45	O=C(NCC(c1cccs1)N1CCc2ccccc2C1)C1CC1 (stereo not given)
46	O=C(CSc1ccccn1)Nc1cc(C(F)(F)F)cc(C(F)(F)F)c1
47	CCOC(=O)c1cc2c(=O)n3cccc(C)c3nc2n(C)c1=N
48	COc1ccc2c(c1)c1c(c(=O)n(-c3cc(Cl)ccc3C)c(=O)n1CC(=O)N1CCCC1)n2C
49	Cc1ccc(S(=O)(=O)NCCOc2nc(N(C)C)nc(N3CCOCC3)n2)cc1
50	Cc1ccccc1CNC(=O)C1CCN(C(=O)c2cc3oc4ccccc4c3n2C)CC1
assay / compound,41,42,43,44,45,46,47,48,49,50
HCMV UL50-53 inh,-10,-22,.,.,-11,-12,-44,.,.,-5
GIV-Gai inh,97,98,98,99,99,99,100,110,105,103
Sa growth inh,.,72,97,72,116,112,93,121,89,.
Sa growth inh second temp,.,89,87,89,86,86,86,89,86,.

51	CN(Cc1ccccc1)C(=O)COC(=O)C1=NNC(=O)CC1
52	CCOc1cc(CNC(=O)c2ccc(C)c(NC(=O)c3nsc4ccccc34)c2)ccc1OC
53	CC(C)COc1ccc(C(=O)Nc2cc3nn(-c4ccccc4)nc3cc2Cl)cc1
54	COc1ccc(-c2cc3c(=O)[nH]ncn3n2)cc1
55	CCCc1nnc2sc(-c3c[nH]c4ccccc34)nn12
56	CC(=O)NC12CC3CC(C1)CC(NC(C)=O)(C3)C2
57	Cc1nc2c(ccc3nc(NC(=O)c4ccc(S(=O)(=O)N5CCc6ccccc6C5)cc4)sc32)s1
58	COCc1nnc(NS(=O)(=O)c2ccc(OC)cc2)s1
59	COc1cc(C=Nc2nonc2NC(C)=O)ccc1OC(C)C
60	Cc1ccc(CN(C)C(=O)CN(C)S(=O)(=O)c2ccc(Cl)cc2)o1
assay / compound,51,52,53,54,55,56,57,58,59,60
HCMV UL50-53 inh,16,.,-19,32,-12,1,-18,.,-15,-11
GIV-Gai inh,.,104,110,101,109,101,109,93,.,.
Sa growth inh,105,123,96,132,.,102,.,95,109,95
Sa growth inh second temp,93,73,88,91,.,93,.,95,85,95

Next section, starting with the last 4 of the part before.
57	Cc1nc2c(ccc3nc(NC(=O)c4ccc(S(=O)(=O)N5CCc6ccccc6C5)cc4)sc32)s1
58	COCc1nnc(NS(=O)(=O)c2ccc(OC)cc2)s1
59	COc1cc(C=Nc2nonc2NC(C)=O)ccc1OC(C)C
60	Cc1ccc(CN(C)C(=O)CN(C)S(=O)(=O)c2ccc(Cl)cc2)o1
61	CCc1ccc(OC(C)C(=O)N2CC(C(=O)OC)Oc3ccccc32)cc1 (stereo not given)
62	CCC(C)NC(=O)/C=C/c1cc2c(cc1Br)OCO2 (stereo not given)
63	CCOC(=O)c1cc(C#N)c(Sc2ccccc2)nc1C(F)(F)F
64	CCC(CC)NC(=O)COc1ccc(Cl)cc1Cl
65	CC(=O)c1ccc(NC(=O)Cn2c(=O)cc(C)c3c(C)nn(-c4cccc(F)c4)c32)cc1
66	O=C(Nc1ccc2c(c1)CCCN2C(=O)c1cccs1)c1ccccc1C(F)(F)F
67	O=c1[nH]c2ccccc2c(O)c1-c1nc2ccccc2c(=O)[nH]1
68	CCCn1c(=O)c2sccc2n2c(SCc3ccccc3C)nnc12
69	CCc1ccc(NC(=O)C(=O)NCC(c2ccc3c(c2)OCO3)N2CCOCC2)cc1 (stereo not given)
70	Cc1cc(C)n(-c2nc(CC(=O)NC(C)C)cs2)n1
assay / compound,57,58,59,60,61,62,63,64,65,66,67,68,69,70
HCMV UL50-53 inh,-18,.,-15,-11,-11,-17,-6,-23,.,.,-21,-33,.,11
GIV-Gai inh,109,93,.,.,107,101,102,.,99,99,104,98,99,104
Sa growth inh,.,95,109,95,98,.,109,85,87,89,66,.,80,.
Sa growth inh second temp,.,95,85,95,87,.,72,94,90,79,84,.,92,.

71	Cn1cnc(S(=O)(=O)NCC2CCN(S(=O)(=O)c3ccccc3)CC2)c1
72	CSc1ccc(CN2CCN(Cc3ccco3)CC2)cc1
73	COc1ccc(C2CC(=O)C3=C(C2)Nc2onc(C)c2C3c2ccc(O)c(OC)c2)cc1 (stereo not given)
74	CSc1[nH]c(=O)cc(C)c1C(=O)O
75	O=C(CCn1nc(-c2ccc(Cl)cc2)c2ccccc2c1=O)Nc1ccc(OC(F)(F)F)cc1
76	Cc1cccc(NC(=O)Cc2ccc(-n3c(C)nc4cccnc43)cc2)c1C
77	COc1cc(-c2nc3ccccc3c(=O)n2NC(=O)Cn2nc(C(F)(F)F)c(Br)c2C)cc(OC)c1OC
78	N#CC1=C(N)OC2=C(C(=O)CCC2)C1c1ccccc1OC(=O)N1CCOCC1 (stereo not given)
79	Cc1c(O)nc2ccccn2c1=O
80	CCOCCOC(=O)C1=C(C)NC2=C(C(=O)CC(c3ccc(Cl)cc3)C2)C1c1ccc(OC(C)=O)c(OCC)c1 (stereo not given)
assay / compound,71,72,73,74,75,76,77,78,79,80
HCMV UL50-53 inh,-4,-2,1,0,14,.,-10,-29,16,-24
GIV-Gai inh,101,100,110,.,104,105,93,106,106,100
Sa growth inh,94,96,.,111,87,127,.,.,101,.
Sa growth inh second temp,87,111,.,100,103,87,.,.,95,.

81	O=C(N/C=C/c1ccco1)OCc1ccccc1
82	Cc1nc2c(-c3ccccc3)noc2c(=O)n1CC(=O)O
83	Cc1cccc(Cn2nc(C(C)(C)C)cc2C(=O)NCc2cccs2)c1
84	CCCc1[nH]nc2c1C(c1ccc(OC(=O)N3CCOCC3)cc1)C(C#N)=C(N)O2 (stereo not given)
85	COCC(C)NC(=O)c1cccc(Cl)c1 (stereo not given)
86	COc1ccc(-n2nc3cc(C)c(NC(=O)Cc4ccc(Cl)cc4)cc3n2)cc1
87	OCc1c[nH]c2ccccc12
88	O=C(CSc1nc2cc(C(=O)NC3CCCC3)ccc2c(=O)n1CCc1ccccc1)c1ccc(F)cc1
89	Cc1coc2c(C)c3oc(=O)c(CCC(=O)NCCc4ccc(Cl)cc4)c(C)c3cc12
90	C1CCC(NC2=NCCS2)CC1
assay / compound,81,82,83,84,85,86,87,88,89,90
HCMV UL50-53 inh,-8,2,-15,-30,-8,-39,0&-16,9,-5,5
GIV-Gai inh,124,94,105,106,100,109,.,111,102,102
Sa growth inh,.,.,90,.,109,106,118,.,106,103
Sa growth inh second temp,.,.,90,.,98,83,87,.,91,103

91	COc1ccc(OC)c(C2CC(c3ccc(C)cc3)=NN2S(=O)(=O)c2ccccc2)c1 (stereo not given)
92	Oc1ccccc1Oc1cnn(-c2ccccc2)c1-c1ccccc1
93	Cc1ccc2c(c1)cc1c(=O)n(CC(=O)NC(C)CCc3ccccc3)nc(C)n12 (stereo not given)
94	O=C(CSc1ccc2ccccc2c1)Nc1ccccc1N1CCOCC1
95	C=Cn1c2ccccc2c2nc3ccccc3nc21
96	Cc1ccnc(N=Cc2c(C)[nH]n(-c3ccccc3)c2=O)c1
97	Cc1cccc(S(=O)(=O)c2cn(Cc3ccccc3)c3cc(N4CCC(C)CC4)c(F)cc3c2=O)c1
assay / compound,91,92,93,94,95,96,97
HCMV UL50-53 inh,-15,-20,-34,8,-35,.,.
GIV-Gai inh,107,.,102,.,104&102,104,108
Sa growth inh,.,110,114,92,84,85,118
Sa growth inh second temp,.,89,92,97,66,89,105
